UCH37 inh – blocks the human deubiquitinase UCH37; actives 0.33% (n = 330,000); Q9Y5K5; purified proteasome/UCH37, Ub-AMC cleavage fluorescence; inhibition, % (concentration not given with the values); AID 588478;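 active means mean of two replicates above 20%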;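 further: 0% = compound-free wells with enzyme and 100% = wells lacking proteasome; stock transfer was 100 nL into about 20 µL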
Target sequence (Q9Y5K5 whole entry, looked up): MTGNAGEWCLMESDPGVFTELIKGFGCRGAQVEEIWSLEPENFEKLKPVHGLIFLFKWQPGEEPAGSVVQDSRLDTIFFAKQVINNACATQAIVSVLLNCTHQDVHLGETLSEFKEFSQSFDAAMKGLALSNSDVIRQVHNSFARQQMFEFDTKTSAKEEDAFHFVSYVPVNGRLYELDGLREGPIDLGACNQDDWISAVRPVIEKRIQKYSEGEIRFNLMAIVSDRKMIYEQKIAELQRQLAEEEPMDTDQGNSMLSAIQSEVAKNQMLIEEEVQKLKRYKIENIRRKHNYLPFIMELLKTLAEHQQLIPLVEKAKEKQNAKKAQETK
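Material: human UCH37 enzyme supplied as purified proteasome complex / Amount: 0.15 nM proteasome as dispensed / Buffer or medium: pH 7.4 Tris-HCl (50 mM) with ovalbumin, ATP-MgCl2, DTT / Times: preincubation 30 min, reaction 25 min, room temperature / Technique: AMC fluorescence from Ub-AMC cleavage, excitation 355 nm, emission 460 nm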
E coli growth – inhibitors of Escherichia coli growth; OD600, 23 h; stronger effect = lower value; OD600 absorbance (concentration not given with the values); actives 0.21% (n = 330,000);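 active means OD600 absorbance below the run mean of sample wells minus 3.6 SD, in any replicate, cut at about 0.56 in these data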;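 further: stock transfer was 300 nL into about 60 µL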
Starred values were filed as active, the others as inactive. Only part of the results is shown; count on the stated rates, not on these rows.

Each structure is followed by: UCH37 inh	E coli growth
> COc1ccc(COC(=O)NN=C(C)CC(=O)Nc2ccc(Cl)cc2)cc1
→ 5.1	0.719
> CSc1ccc(C=NN2CCN(Cc3ccc(C)cc3C)CC2)cc1
→ 0.6	0.668
> CNC(=S)NN=Cc1cc(Br)c(OCc2ccncc2)c(OC)c1
→ 0.9	0.701
> O=C(CNC(=O)c1ccccc1)NN=Cc1ccc([N+](=O)[O-])o1
→ 4.2	0.582
> O=C(CN1CCN(Cc2ccc(Cl)cc2)CC1)NN=Cc1cccs1
→ 3.5	0.677
> c1ccc(CON=C(c2ccc(C3CC3)nc2)C2CC2)cc1
→ 1.1	0.708
> CNC(=S)N(C)N=C1C(=O)N(Cc2c(Cl)cccc2Cl)c2ccccc21
→ -0.1	0.74
> CN1CCN(N=Cc2nc(-c3ccccc3Cl)n3ccccc23)CC1
→ 7.0	0.695
> CC(=NNC(=O)COc1cccc(Cl)c1)c1ccc2c(c1)OCCO2
→ 2.4	0.694
> CNC(=S)NN=Cc1c2ccccc2c(Cl)c2ccccc12
→ 0.2	0.68
> Cn1cccc1C=NNC(=O)CNc1cccc2ccccc12
→ -19.3	0.67
> COC(=O)C(=NNc1ccccc1C(=O)OC)C(C)=NO
→ -25.6	0.66
> COc1ccc(OCC(=O)NN=Cc2ccc(OC)c(OC)c2C(=O)O)cc1
→ 0.5	0.612
> Cn1cccc1-c1cc(C(=O)NN=Cc2ccc([N+](=O)[O-])cc2)[nH]n1
→ 3.1	0.72
> COc1cc(C=NNC(=O)c2cc3ccccc3[nH]2)ccc1O
→ -19.0	0.638
> COc1cc(C=NNc2nc3ccccc3[nH]2)ccc1O
→ 0.0	0.581
> Cc1ccc(C=NNC(=O)c2nnn(-c3nonc3N)c2CSc2ccccc2)o1
→ 0.3	0.668
> O=C(O)Cn1cc(C=NNC(=O)c2cc3cc(Br)ccc3o2)c2ccccc21
→ 4.9	0.672
> CC(=NNC(=O)c1cc(C)[nH]n1)c1cccs1
→ 7.1	0.645
> CON=C(CNC(=O)c1ccc(Cl)cc1Cl)c1ccc(Cl)cc1
→ -1.5	0.764
> CC(=NNC(=O)CCC(=O)Nc1cccc(Cl)c1)c1ccc(C)cc1
→ 3.3	0.621
> CC(=NNC(=O)CNC(=O)c1cccnc1)c1ccc(Cl)cc1
→ -0.2	0.667
> COc1cc(OC)nc(Oc2ccccc2C=NO)n1
→ -2.3	0.65
> CC(=O)ON=C(c1nonc1N)N(C)C
→ 3.3	0.643
> CN(C)C=Nc1sc2c(c1C#N)CCC2
→ 9.4	0.72
> CON=Cc1cc(C(=O)c2ccc(Cl)cc2Cl)cn1C
→ 0.7	0.652
> O=[N+]([O-])c1cccc(C=NNc2nc(C(Cl)(Cl)Cl)nc3ccccc23)c1
→ 5.0	0.725
> NC(=NOC(=O)c1ccc([N+](=O)[O-])cc1)c1ccccn1
→ 0.6	0.659
> O=c1c2c3c(sc2ncn1N=Cc1ccccc1)CCCC3
→ -0.5	0.727
> COc1ccc(C=NNC(=O)c2ccc(CSc3nc(C)cc(C)n3)cc2)c(OC)c1OC
→ 3.4	0.691
> Cc1cc(C=Nn2cnnc2)c(C)n1-c1ccccc1
→ 7.0	0.784
> O=C(NN=Cc1ccccn1)c1cccs1
→ 1.4	0.654
> Oc1ccc2ccccc2c1C=NNc1nnc(-c2ncc[nH]2)c2ccccc12
→ 6.3	0.674
> O=[N+]([O-])c1ccc(NN=Cc2cn(Cc3ccc(F)cc3)c3ccccc23)nc1
→ 9.0	0.722
> Cc1nnsc1C(=O)NN=Cc1ccc2ccccc2c1O
→ 6.5	0.621
> CN(C)c1nc(NCc2ccccc2)nc(NN=Cc2ccccc2F)n1
→ 1.7	0.715
> CC(=NOC(=O)c1cccc(C)c1)c1sc(-c2ccccc2)nc1C
→ -20.1	0.719
> Cc1nc2c(cc1C(=O)NN=Cc1ccc([N+](=O)[O-])cc1)c(=O)n(C)c(=O)n2C
→ 3.4	0.688
> O=C(NN=Cc1ccc2c(c1)OCO2)c1cc2ccccc2o1
→ 2.1	0.694
> COc1ccc(C=NN2C(=N)SCC2=O)cc1
→ 7.9	0.724
> Cc1cc(C)nc(N=C(NC(=O)c2ccccc2)Nc2ccccc2)n1
→ -0.6	0.726
> CC(CC(=O)Nc1cccc(Cl)c1Cl)=NNC(=O)C(=O)NC1CCCCC1
→ 2.8	0.636
> Cc1cccc(NCC(=O)NN=Cc2c[nH]c3ccccc23)c1
→ 2.4	0.706
> Cc1nn(-c2ccccc2)c(C)c1C=NNC(=O)c1ccccc1O
→ -11.8	0.641
> COc1cc(C=NNC(=O)c2ccccn2)ccc1OC(=O)c1ccccc1Br
→ 4.4	0.735
> COc1ccc(C2N(Cc3ccccc3)CC(=O)N2N=C(C)c2ccccc2)cc1 (stereo not given)
→ 1.5	0.655
> COc1ccccc1C=NNC(=O)c1ccc(NC(=O)c2ccccc2Br)cc1
→ 1.3	0.725
> NC(=NOC(=O)c1cc([N+](=O)[O-])ccc1Cl)c1cccnc1
→ 2.9	0.657
> Cc1cc(NN=Cc2ccc(N(C)C)cc2)nc(NCc2ccccc2)n1
→ -5.9	0.662
> O=C(Nc1cc(Cl)ccc1Cl)C1Cc2ccccc2OC1=NO (stereo not given)
→ 5.7	0.676
> Cc1nn(C)c(C(=O)NN=Cc2ccc(Br)cc2)c1Cl
→ 4.0	0.71
> Cc1ccc(C=NNC(=O)c2cccc(NC(=O)c3ccccc3Cl)c2)o1
→ 6.0	0.621
> COc1ccc(N(CC(=O)NN=Cc2cc(Br)c(C)o2)S(=O)(=O)c2ccc(NC(C)=O)cc2)cc1
→ 3.3	0.71
> CC(C)(C)c1ccc(S(=O)(=O)ON=C2CCCCC2c2ccc([N+](=O)[O-])cc2[N+](=O)[O-])cc1 (stereo not given)
→ 2.8	0.732
> FC(F)(F)c1ccccc1C=NN1CCN(Cc2ccccc2)CC1
→ 1.9	0.614
> NC(=NOC(=O)c1ccccc1F)c1ccc([N+](=O)[O-])cc1
→ 2.2	0.667
> COc1cccc(C=Nn2cnc3cc(C)c(C)cc32)c1OC
→ 1.8	0.687
> O=C(NN=Cc1cc(Br)cs1)c1ccncc1
→ 7.6	0.656
> CCCC12CN3CCN(CC(C3)C1=NNC(=O)c1ccc(C(C)(C)C)cc1)C2
→ 4.7	0.674
> CCN(CC)S(=O)(=O)c1ccccc1C=NO
→ 2.8	0.699

Molecules shown so far that contain a COOH group:
Each structure is followed by: UCH37 inh	E coli growth
> COc1ccc(OCC(=O)NN=Cc2ccc(OC)c(OC)c2C(=O)O)cc1
→ 0.5	0.612
> O=C(O)Cn1cc(C=NNC(=O)c2cc3cc(Br)ccc3o2)c2ccccc21
→ 4.9	0.672

Complete entries from above.
Cc1ccc(C=NNC(=O)c2cccc(NC(=O)c3ccccc3Cl)c2)o1 across the screens: UCH37 inh = 6.0; E coli growth = 0.621
CC(CC(=O)Nc1cccc(Cl)c1Cl)=NNC(=O)C(=O)NC1CCCCC1 across the screens: UCH37 inh = 2.8; E coli growth = 0.636
Cc1nn(-c2ccccc2)c(C)c1C=NNC(=O)c1ccccc1O across the screens: UCH37 inh = -11.8; E coli growth = 0.641

New compounds follow:
Each structure is followed by: UCH37 inh	E coli growth
> COc1cccc2c1OCCC2=NNC(=O)COc1ccccc1C
→ 0.7	0.733
> CCc1ccc(S(=O)(=O)NN=Cc2ccc([N+](=O)[O-])o2)cc1
→ 1.9	0.524
> CC(=NOCON=C(C)c1ccc(F)cc1)c1ccc(F)cc1
→ 1.4	0.651
> Cc1c(NC(=O)C(=O)C=C(O)c2ccccc2)c(=O)n(-c2ccccc2)n1C
→ 7.6	0.662
> CC(CC(=O)Nc1cc(C)ccn1)=NNC(=O)c1ccc(C)cc1
→ 3.0	0.696
> CCOc1ccc(C=NNC(=O)c2ccc(Cn3cc([N+](=O)[O-])cn3)o2)cc1
→ 4.6	0.691
> O=C(NN=Cc1ccccc1Cl)c1ccncc1
→ 1.7	0.687
> O=C(CNc1ccc2ccccc2c1)NN=Cc1cc2ccccc2nc1Cl
→ 4.3	0.717
> O=C1NCCCC1C(=O)NN=Cc1ccc(Cl)cc1 (stereo not given)
→ 4.1	0.718
> O=C(NN=Cc1ccccn1)C1COc2cc3ccccc3cc2O1 (stereo not given)
→ 2.8	0.774
> COc1ccccc1/C=C/C(=O)NCC(=O)NN=Cc1cccnc1
→ -13.1	0.68
> CC1=NNC(=O)C1CC(=O)NN=Cc1sccc1C (stereo not given)
→ 2.9	0.642
> Cc1cc(N(C)N=Cc2ccccc2O)nc(-c2ccccc2O)n1
→ -16.2	0.699
> CCOc1ccc(-c2c(C(=O)NN=CC3CC=CCC3)nnn2-c2nonc2N)cc1 (stereo not given)
→ -0.4	0.664
> O=C(NN=Cc1ccc(OC(=O)c2cccs2)cc1)c1cccc(F)c1
→ 0.2	0.697
> O=C(NN=C/C=C/c1ccco1)c1ccccc1Cl
→ 19.1	0.632
> CCC(C)N=C1SCC(C)(C=NO)S1 (stereo not given)
→ 2.1	0.688
> CN(C)C=NC(=S)Nc1cc(Cl)cc(Cl)c1
→ 1.4	0.692
> Cc1[nH]c2ccccc2c1C=NNC(=O)CNC(=O)c1ccc2c(c1)OCCO2
→ 4.0	0.663
> CCON=C(C)c1c(O)cc(-c2ccccc2)n(-c2ccccc2)c1=O
→ 3.1	0.651
> O=C(NN=Cc1ccncc1)c1ccc(Cl)s1
→ 7.5	0.663
> O=C(Cc1ccccc1)NCC(=O)NN=Cc1ccc([N+](=O)[O-])s1
→ 12.7	0.649
> O=C(NN=Cc1ccc(O)c(O)c1)c1ccc(CSc2cccc3cccnc23)cc1
→ -16.5	0.683
> COc1ccc(C=NNc2nc(NCc3ccco3)nc(Nc3ccc(OC)cc3)n2)cc1
→ 3.8	0.729
> CC(C)(C)OC(=O)NN=Cc1cc(N=Nc2ccccc2)ccc1O
→ 5.9	0.684
> CCN(CC)S(=O)(=O)c1cccc(-c2n[nH]c(=S)n2N=Cc2ccc(OC)cc2)c1
→ 7.7	0.703
> O=C(NN=Cc1cn(-c2cccs2)nc1-c1ccccc1)c1ccc(O)cc1
→ -4.4	0.727
> CN(C)C=NNC(=O)c1ccccc1Cl
→ 7.4	0.697
> COCCNC(=S)NN=C(C)c1ccccc1O
→ 7.4	0.674
> O=[N+]([O-])c1cccc(C=NN2CCN(c3ccc(Cl)cc3)CC2)c1
→ 4.4	0.784

6 entries out of the list, ordered by molecular weight, ascending:
Each structure is followed by: UCH37 inh	E coli growth
> CCC(C)N=C1SCC(C)(C=NO)S1 (stereo not given)
→ 2.1	0.688
> O=C(NN=C/C=C/c1ccco1)c1ccccc1Cl
→ 19.1	0.632
> O=C(NN=Cc1ccccn1)C1COc2cc3ccccc3cc2O1 (stereo not given)
→ 2.8	0.774
> O=C(Cc1ccccc1)NCC(=O)NN=Cc1ccc([N+](=O)[O-])s1
→ 12.7	0.649
> O=C(NN=Cc1ccc(OC(=O)c2cccs2)cc1)c1cccc(F)c1
→ 0.2	0.697
> CCOc1ccc(C=NNC(=O)c2ccc(Cn3cc([N+](=O)[O-])cn3)o2)cc1
→ 4.6	0.691

(next part)
Each structure is followed by: UCH37 inh	E coli growth
> Clc1cnc(NN=Cc2ccncc2)c(Cl)c1
→ 15.8	0.696
> CCC(=NNC(=O)C1CCCC1)c1cccc(Br)c1
→ 1.0	0.678
> CC=NNC(=O)COc1cc(C)ccc1C
→ 2.3	0.684
> O=C(O)CC1SC(=NN=Cc2ccccc2O)N(c2ccc(O)cc2)C1=O (stereo not given)
→ 6.6	0.663
> Cc1ccc(O)c(C=NNC(=O)Cc2ccc(Cl)cc2)c1
→ -0.4	0.671
> O=C1CCCC(=NNC(=O)c2ccc(NS(=O)(=O)c3ccc(Br)cc3)cc2)C1
→ 1.5	0.684
> Cc1ccc(NC(C)C(=O)NN=Cc2c[nH]c3ccccc23)cc1 (stereo not given)
→ 1.9	0.704
> COc1cc(C=NNC(=O)c2cc(-c3cccc(OC(C)C)c3)nc3ccccc23)ccc1O
→ -7.0	0.661
> CC(=NNC(=O)c1cccc(S(=O)(=O)N2CCCC2)c1)c1ccc(C)cc1
→ 2.7	0.644
> CCON=Cc1ccc(OC)c(Oc2nc(OC)cc(OC)n2)c1
→ 1.8	0.656
> Cc1nn(-c2ccccc2)c(Cl)c1C=NNC(=O)c1ccnn1C
→ -1.5	0.725
> CC(C)(O)C(=O)NN=Cc1ccc(OC/C=C/c2ccccc2)cc1
→ 4.3	0.697
> O=C(COc1cccc2cccnc12)NN=C1SCC(=O)N1Cc1ccco1
→ 1.0	0.728
> Cc1ccc(S(=O)(=O)NN=Cc2ccc(OS(=O)(=O)c3ccc(C)c([N+](=O)[O-])c3)cc2)cc1
→ 6.4	0.785
> COc1ccc(C(=O)Nc2ccccc2C(=O)NN=Cc2ccco2)cc1
→ 5.0	0.692
> COc1ccc(CCNC(=O)CC(C)=NNC(=O)C23CC4CC(CC(C4)C2)C3)cc1OC
→ 4.0	0.678
> O=C(CNC(=O)c1cccnc1)NN=Cc1cccnc1
→ 1.0	0.657

Compound activity (PubChem BioAssay)
